BJeLR lethal: kills HRASV12-expressing BJeLR cells; BJeLR (HRASV12) viability, CellTiter-Glo ATP luminescence, 48 h; reference of the scale not given here; actives 0.17% (n = 300,000); inhibition, % (test concentration not listed); AID 1554;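 active means replicate mean above 50%; inconclusive means above 50% but judged a plate artefact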;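 further: 50 nL library stock added to about 25 µL; numbers are from one replicate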
PrP UTR inh: suppresses PrP 5' UTR mRNA reporter expression; inhibition, % (concentration not given with the values); cell-based PrP 5' UTR mRNA reporter, plate reader; actives 0.35% (n = 340,000);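 active means every replicate at 50% or more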;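 further: 0 = median of the neutral control wells; tested in H4 reporter cells; numbers are from one replicate; inactives centre near -14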
ugtP null kill: growth inhibition of S. aureus ugtP deletion strain; S. aureus RN4220 ugtP deletion, OD600 growth, 16 h; some inactives read as strong as hits; growth inhibition, % (test concentration not listed); actives 0.54% (n = 330,000); AID 1259309;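 active means z-score under -3 and OD600 up to 0.15 on both plates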;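 further: plate controls were untreated wells for no effect and antibiotic for full effect; wells of about 80 µL received 100 nL stock; the first replicate is given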
Mtb hypoxia inh: reduces hypoxia-regulated biosensor signal in M. tuberculosis. M. tuberculosis hypoxia-regulated fluorescent reporter, fluorescence. fluorescence inhibition, % (no concentration beside the values). actives 0.1% (n = 300,000). AID 1159583;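 active means 35 to 45% if threefold the growth effect, above 45% if 1.5-fold the growth effect; inactive means the rest, general growth blockers included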;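 further: wells of about 50 µL received 100 nL stock; 0% = vehicle wells and 100% = reference inhibitor wells; whole bacteria with a GFP reporter of the hypoxia response; strong numbers were not always called active; many hits fall short of the cut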
Sa RN4220 lethal: kills Staphylococcus aureus RN4220; S. aureus RN4220 growth, OD600, 16 h; inhibition, % (test concentration not listed); actives 0.33% (n = 330,000); AID 1259311;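 active means z-score of -3 or lower and OD600 up to 0.18 on both plates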;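 further: plate controls were untreated cells for no effect and reference antibiotic for full effect; stock transfer was 100 nL into about 80 µL; one replicate is shown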
Bead autofluor: compound fluorescence in toxin protease inhibitor counterscreen; actives 3.1% (n = 360,000); compound autofluorescence counterscreen, microsphere flow cytometry; hits give high values; AID 624483; fluorescence intensity (no concentration beside the values);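 active means at least 3 SD above the mean of all compounds, about 16000 in these data; inconclusive means too few beads counted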;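 further: 100 nL of 1 mM stock went into each well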
Mtb hypoxia inh growth: second read-out of Mtb hypoxia inh, no call of its own (marks repeat the call); growth inhibition, %; measured here: M. tuberculosis growth (absorbance);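 0% = vehicle and 100% = reference antibiotic; read after six days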
An asterisk follows results filed as active; u = inconclusive; x = no result given. No enrichment for hits. Share with any hit: about 4%.

SMILES	BJeLR lethal	PrP UTR inh	ugtP null kill	Mtb hypoxia inh	Mtb hypoxia inh growth	Sa RN4220 lethal	Bead autofluor
COc1ccc(OCC(=O)N/N=C(\C)c2ccc(-n3ccnc3)cc2)cc1	7	-8	x	x	x	x	2563
Cc1ccc(C(=O)N2CCC(C(=O)c3ccc(Cl)cc3)CC2)cc1	-25	-29	10	16	14	0.1	3597
CCN1CCn2c3c(c4cccc(C)c42)CCCC31 (stereo unspecified)	5	-12	-4	6	-4	3.0	2950
Cc1cccc(/C=N/NC(=O)c2ccccc2OCc2cccc(Br)c2)n1	4	-17	x	x	x	x	3562
CCOC(=O)C(=O)N1CCN(c2ccccc2OC)CC1	8	-8	x	x	x	x	4294
NS(=O)(=O)c1ccc(CNC(=O)CNC(=O)Cc2ccccc2)cc1	-2	-14	6	0	-1	3.8	4364
COc1ccc(-c2ccc(C#N)c(SCC(=O)NC3CC3)n2)cc1OC	10	-1	0	15	19	5.6	5865
COc1ccc(CCN2C(=O)CC(N3CCOCC3)C2=O)cc1OC (stereo unspecified)	x	-28	-2	x	x	1.7	4904
N#Cc1ccc(OCC(=O)OCC(=O)c2ccccc2)cc1	x	-49	6	5	4	2.0	3327
CN(C)c1ccc(CNc2ncc(Br)cc2Br)cc1	3	-30	74	x	x	2.9	2974
COC(=O)c1cc(NC(=O)COC(=O)C2CCC2)cc(C(=O)OC)c1	-4	0	-4	12	1	3.1	u
Cc1c[n+]([O-])cc(C)c1[N+](=O)[O-]	x	-16	0	17	2	0.8	4009
O=C(CSc1nc2ccccc2n1Cc1ccccc1Cl)N/N=C/c1ccccc1C(=O)O	-7	-31	x	x	x	x	4743
NC(=O)c1ccc(NC(=O)COC(=O)CC(NC(=O)c2ccccc2Cl)c2ccccc2)cc1 (stereo unspecified)	-1	-7	-2	2	2	3.6	2709
CCCCn1c(N)c(N(CC)C(=O)C2CCN(C(=O)c3ccccc3C)CC2)c(=O)[nH]c1=O	x	-11	-1	-3	-4	-1.7	3994
O=C(CCC1CCCC1)N1CCN(C(=O)COc2ccccc2)CC1	-3	-29	1	x	x	-3.0	2357
COc1ccc(Cl)cc1C(=O)OCC(=O)NC(=O)c1cccn1C	-14	-1	-3	x	x	7.6	2405
CCCCCc1ccc(C(=O)CCC(=O)OCC(=O)N(CC)c2c(N)n(Cc3ccccc3)c(=O)[nH]c2=O)cc1	x	-9	7	6	7	2.6	x
COc1cc2c(c(OC)c1OC)CCc1cnoc1-2	-6	-11	-3	-6	4	1.2	4615
CCS(=O)(=O)c1nc(S(=O)(=O)c2ccc(C)cc2)c(NCCN2CCOCC2)s1	2	12	5	4	2	1.8	3730
COc1ccc(C(=O)C2CCCN(C(=O)c3ccoc3C)C2)cc1F (stereo unspecified)	2	-15	6	17	12	2.5	4322
CN(C)S(=O)(=O)c1ccc(N2CCCC2)c(C(=O)Nc2ccc(F)cc2F)c1	4	-16	6	7	-11	-0.5	5094
CCOC(=O)C1=CN(Cc2ccco2)S(=O)(=O)NC1c1ccc(F)c(Cl)c1 (stereo unspecified)	x	-16	5	3	4	3.1	3842
Cc1ccc(C(=O)O)c(NC=O)c1OCc1ccccc1	x	-17	4	14	12	3.1	4159
O=C(Nc1cc(F)c(Br)cc1F)c1ccc(Cl)cc1	-2	-33	6	14	17	4.7	5576
Cc1nccn1-c1ccc(C(F)(F)F)cc1[N+](=O)[O-]	5	-4	14	5	1	5.7	4831
C/C(=N\Nc1cccc2cccnc12)c1ccc[nH]1	5	-117	x	x	x	x	4404
Oc1cc(Cc2ccccc2)cnc1CN1CCCCC1	-15	-9	3	x	x	-1.8	4773
c1ccc(-c2ncnc3nc4n(c23)CCC4)cc1	3	-3	5	11	4	4.4	10862
COc1cccc(CN(C)C(=O)c2ccc(S(=O)(=O)N3CCCC3)cc2)c1OC	3	-15	2	6	7	7.1	5729

A second format for some results above.
canonical_smiles: O=C(CCC1CCCC1)N1CCN(C(=O)COc2ccccc2)CC1
  BJeLR lethal: -3
  PrP UTR inh: -29
  ugtP null kill: 1
  Mtb hypoxia inh: x
  Mtb hypoxia inh growth: x
  Sa RN4220 lethal: -3.0
  Bead autofluor: 2357

canonical_smiles: COc1ccc(Cl)cc1C(=O)OCC(=O)NC(=O)c1cccn1C
  BJeLR lethal: -14
  PrP UTR inh: -1
  ugtP null kill: -3
  Mtb hypoxia inh: x
  Mtb hypoxia inh growth: x
  Sa RN4220 lethal: 7.6
  Bead autofluor: 2405

(more compounds)
SMILES	BJeLR lethal	PrP UTR inh	ugtP null kill	Mtb hypoxia inh	Mtb hypoxia inh growth	Sa RN4220 lethal	Bead autofluor
CCc1nc2ccccc2c(=O)n1N=Cc1ccc(OC)cc1	x	x	3	-5	6	3.9	x
COC(=O)c1ccc2ccn(CC(=O)NC3CCCCC3)c2c1	-3	-4	3	x	x	2.1	4051
Cc1ccc(NC(=O)c2c(C(F)(F)F)nn(C)c2SCc2cccc(C(F)(F)F)c2)cc1C	9	-12	-25	11	5	1.9	16554*
CN(C)S(=O)(=O)c1cccc(C(=O)OCC(=O)Nc2sccc2C(N)=O)c1	-6	-14	-14	11	8	6.9	8344
CCSc1nnc(NC(=O)Cc2cc(OC)c(OC)c(OC)c2)s1	6	0	17	0	-4	4.2	3305
Cc1cccc(NC(=O)N2CCC(NC(=O)c3ccccc3C)CC2)c1	5	-8	2	9	8	2.8	3794
COc1ccc(NC(=O)CN2CC=C(c3ccccc3)CC2)cc1S(=O)(=O)N1CCOCC1	14	-30	17	7	5	-0.7	4942
O=C(NN=C1CCCC1)c1n[nH]c2c1CCC2	-3	-16	-4	15	1	6.0	3392
CCC(=O)N1CCCc2cc(S(=O)(=O)N3CCN(C4CCCCC4)CC3)ccc21	3	-12	-4	16	11	6.3	3440
O=C(Nc1ccc(Cl)c(Cl)c1)N1CC=C(c2ccccc2)CC1	0	-38	-26	-10	5	14	3218
COc1ccccc1NC(=O)c1ccc([N+](=O)[O-])o1	-9	x	63	16	12	13	x
COc1ccc(CS(=O)(=O)c2nc(C)cc(C)c2S(C)(=O)=O)cc1	5	-38	1	3	-3	4.5	3862
Cc1cc(C)c(C#N)c(Nc2ccc(F)cc2)n1	-10	-14	7	3	16	2.4	3418
CCOC(=O)c1cc(-c2ccccc2)sc1NC(=O)C(C)OC(=O)c1cccnc1Cl (stereo unspecified)	-7	-18	-3	6	4	7.6	2618
Cc1ccc(NCc2nnc(SCC(=O)O)n2Cc2ccccc2)cc1Cl	3	-35	0	1	-4	-2.6	3433
CCOc1ccccc1NC(=O)c1ccc(NC(=O)c2ccco2)cc1	-6	-9	5	2	0	12	3366
O=C(Cc1cccc([N+](=O)[O-])c1)Nc1cccc(C(=O)N2CCCCC2)c1	x	-1	-10	5	13	2.7	3853
O=C(COC(=O)c1cccc(Cl)c1)Nc1ccc2[nH]c(=O)[nH]c2c1	-6	-8	2	-7	1	0.1	5997
CCOC(=O)c1cc(NC(=O)Nc2ccccc2Cl)c(C)nc1C	-6	-26	-1	11	-3	-0.1	3669
COc1ccc(Nc2nc(-c3ccc(OC)cc3)c(CCC(=O)O)s2)cc1	0	-18	-1	12	9	-6.9	4224
CC(C)N1CCN(C(=O)C2CCC(=O)N(CCc3cccc(F)c3)C2)CC1 (stereo unspecified)	3	-4	0	1	1	2.3	6010
COc1ccc(NC(=O)c2c(OC)cccc2OC)c(OC)c1	-2	-12	4	11	5	1.5	16438*
CN(C)c1ccc(C=C2C(=O)NC(=O)NC2=O)cc1	x	-21	-3	4	4	2.2	3752
Cc1cc(C)nc(SCc2cc(=O)c(OC(=O)c3ccco3)co2)n1	-2	-14	1	-5	-2	1.7	2228
O=C(Nc1cccc(F)c1)N(Cc1ccc(Cl)cc1)CC(O)C(F)(F)F (stereo unspecified)	-7	-17	-30	x	x	-1.3	4362
O=C(CNCc1ccc(Cl)cc1)Nc1cccc(C(=O)O)c1	x	-8	8	2	-1	2.7	3948
CCC(C)N(C(=O)COC(=O)/C=C/c1ccc(O)c(OC)c1)C1CCS(=O)(=O)C1 (stereo unspecified)	-11	-43	5	15	1	7.9	2205
COC(=O)C[C@H]1c2ccc(C(F)(F)F)cc2S(=O)(=O)N1Cc1ccccc1	14	-27	x	x	x	x	3721
Cc1cc(=S)[nH]c2ccccc12	2	-16	3	x	x	-0.2	2299
CC1(C)CC(=O)C(Sc2ccccc2C(=O)O)=C(O)C1	2	-7	6	10	2	1.8	1882
CCOc1ccc(S(=O)(=O)NCc2ccc3c(c2)OCO3)cc1C(=O)O	-5	-12	-5	1	-6	1.2	3891
O=C(O)c1cc2c(s1)-c1ccccc1OC2	-1	-18	-11	x	x	4.2	2904

Reprinted from the listing for reference:
SMILES	BJeLR lethal	PrP UTR inh	ugtP null kill	Mtb hypoxia inh	Mtb hypoxia inh growth	Sa RN4220 lethal	Bead autofluor
O=C(Nc1cccc(F)c1)N(Cc1ccc(Cl)cc1)CC(O)C(F)(F)F (stereo unspecified)	-7	-17	-30	x	x	-1.3	4362
O=C(CNCc1ccc(Cl)cc1)Nc1cccc(C(=O)O)c1	x	-8	8	2	-1	2.7	3948
CCC(C)N(C(=O)COC(=O)/C=C/c1ccc(O)c(OC)c1)C1CCS(=O)(=O)C1 (stereo unspecified)	-11	-43	5	15	1	7.9	2205
COC(=O)C[C@H]1c2ccc(C(F)(F)F)cc2S(=O)(=O)N1Cc1ccccc1	14	-27	x	x	x	x	3721
Cc1cc(=S)[nH]c2ccccc12	2	-16	3	x	x	-0.2	2299
CC1(C)CC(=O)C(Sc2ccccc2C(=O)O)=C(O)C1	2	-7	6	10	2	1.8	1882
CCOc1ccc(S(=O)(=O)NCc2ccc3c(c2)OCO3)cc1C(=O)O	-5	-12	-5	1	-6	1.2	3891
